Screening results as filed in PubChem BioAssay.
AID504770: E. coli YBA685 growth inhibition, screen for V. cholerae RctB inhibitors; E. coli YBA685 rctB-dependent plasmid, OD600 growth, 3 h; hits give low values; z-score (no concentration beside the values); actives 0.27% (n = 130,000); AID 504770;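 active = z-score under -2 on both plates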;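 note: wells of about 30 µL received 100 nL stock; score is relative to mean and SD of the test wells; the first replicate is given; strong numbers were not always called active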
Ba CapD inh: blocks the Bacillus anthracis CapD enzyme. z-score (concentration not given with the values). actives 0.23% (n = 140,000). purified CapD enzyme, fluorescence intensity read-out; hits give low values; some hits fall short of the stated cut;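 active = z-score under -4 in either of two replicates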;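 note: stock transfer was 100 nL into about 40 µL; score is relative to mean and spread of the plate; one replicate is shown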
Starred values were filed as active, the others as inactive; · = no result given; & = joins results of further samples. This is a random part of the collection; overall some 0.37% were active at least once.

Molecule	AID504770	Ba CapD inh
COc1ccc(Cc2nc(S(=O)(=O)c3ccc(C)cc3)c(NCc3ccccc3)o2)cc1	1.1	0.21
COC(=O)C1=CN(Cc2ccc(F)cc2)C=C(C(=O)OC)C1c1ccccc1OCc1ccccc1	·	20
O=C(Cc1n[nH]c(=O)c2ccccc12)NCC1CCCO1 (configuration not stated)	-0.25	·
CCOC(=O)c1cc2cccc(NC(=O)c3ccccc3S(C)(=O)=O)c2[nH]1	·	-0.75
O=C1Nc2ccccc2C1c1ncc(C(F)(F)F)cc1Cl (configuration not stated)	-0.1	0.17
NC(=O)NC(=O)Nc1ccc(Cl)cc1	-0.8	0.05
CN(C)C(CNC(=O)c1cccc(OC(F)F)c1)c1ccco1 (configuration not stated)	2	·
COC(=O)c1cc(=O)n2[nH]cnc2n1	·	1

Some of the entries so far, field by field:
> COc1ccc(Cc2nc(S(=O)(=O)c3ccc(C)cc3)c(NCc3ccccc3)o2)cc1
- AID504770: 1.1
- Ba CapD inh: 0.21

> CN(C)C(CNC(=O)c1cccc(OC(F)F)c1)c1ccco1 (configuration not stated)
- AID504770: 2
- Ba CapD inh: ·

> O=C(Cc1n[nH]c(=O)c2ccccc12)NCC1CCCO1 (configuration not stated)
- AID504770: -0.25
- Ba CapD inh: ·

> CCOC(=O)c1cc2cccc(NC(=O)c3ccccc3S(C)(=O)=O)c2[nH]1
- AID504770: ·
- Ba CapD inh: -0.75

The listing continues:
Molecule	AID504770	Ba CapD inh
O=C(CSc1nnc(-c2ccccc2)c(-c2ccccc2)n1)NCCC1=CCCCC1	-0.05	0.29
Clc1ccc(-c2nnc3c4ccccc4nc(N4CCCCC4)n23)c(Cl)c1	·	0.28
COc1cc2nc(NC(C)=O)sc(=O)c2cc1OC	0.3	1.5
CSc1nc2ccc(NC(=O)c3cc(Cl)ccc3[N+](=O)[O-])cc2s1	·	-0.62
COc1ccc(C2=NN(C(=O)CSc3nnc(CNC(=O)c4cccc(OC)c4)n3C)C(c3ccc(F)cc3)C2)cc1 (configuration not stated)	·	0.79
CCOC(=O)C(C(=O)Nc1cccc(C(F)(F)F)c1)C1CCCCC1 (configuration not stated)	-0.35	56
CC(C)(C)c1cn2nc(C(C)(C)C)sc2n1	·	0.21
CC(=O)N1CN2CN(C(C)=O)CC(C(=O)c3ccccc3)(C2)C1	-0.35	0.31

Arranged by SMILES length (smallest number first): part of the list above.
Molecule	AID504770	Ba CapD inh
CSc1nc2ccc(NC(=O)c3cc(Cl)ccc3[N+](=O)[O-])cc2s1	·	-0.62
O=C(CSc1nnc(-c2ccccc2)c(-c2ccccc2)n1)NCCC1=CCCCC1	-0.05	0.29
COc1ccc(C2=NN(C(=O)CSc3nnc(CNC(=O)c4cccc(OC)c4)n3C)C(c3ccc(F)cc3)C2)cc1 (configuration not stated)	·	0.79

Next records:
Molecule	AID504770	Ba CapD inh
ClCc1cccc2c(CCl)cccc12	-0.7	-0.22
O=C(COC(=O)CCc1c[nH]c(=O)[nH]1)Nc1ccc2ccccc2c1	0.3	·
O=C(Nc1ccc(I)cc1)C1C2CCCC1C2c1ccccc1 (configuration not stated)	·	-0.37
COc1ccc(C(NC(=O)CSc2nncn2C(C)C)c2ccccc2)cc1 (configuration not stated)	-0.25	·
O=CNc1ccc(OC(=O)c2cncc(Br)c2)cc1	-0.15	·
O=C(/C=C/c1ccco1)N1CC=C(c2ccccc2)CC1	0.55	·
CC1=C(c2ccc(Cl)cc2)S(=O)(=O)N=C1N1CCC(C(=O)NC2CCCC2)CC1	0.05	-1.2
CCC1(C)N=C(c2ccccc2)C(=S)N1 (configuration not stated)	-0.35	-0.46
CCOC(=O)c1c(NC(=O)CSc2nnc(CNC(=O)c3ccc(OC)c(OC)c3)n2C)sc2c1CCC2	·	-0.14
CC12CC(c3ccccc3O1)C(C(=O)NCc1ccccc1)C(=O)N2 (configuration not stated)	-0.05	·
CCOC(=O)N1CCN(C(=S)Nc2cc(OC)c(OC)cc2C(=O)OC)CC1	-0.75	-0.33
O=C(NCCN1CCCC1)c1ccc2c(c1)ncn2C1CCCCC1	0.3	0.06
O=C(CCC(=O)N1CCC(N(C2CC2)S(=O)(=O)c2ccccc2)CC1)NCc1cccnc1	·	-0.35
Cc1nnc(N/N=C/C(C)c2ccccc2)[nH]c1=O (configuration not stated)	0.95	0.89
O=C(CC(SCc1ccco1)c1cccs1)c1ccc(Cl)cc1 (configuration not stated)	·	-0.48
Cc1ccc(S(=O)(=O)NCCN=Cc2ccc3c(c2)OCO3)cc1	-0.45	0.32
O=S1(=O)N=C(N2CCCCCC2)c2ccccc21	1.4	·
CC(=O)N1CCN(CCN=CC2=C(O)CC(c3ccccc3)CC2=O)CC1 (configuration not stated)	-0.4	4.5
COc1ccc(OCC(=O)N(C2CC2)C2CCN(C(C)=O)CC2)cc1	·	-0.28
COc1c(Cl)cc(Cl)cc1/C=C(\C#N)C(N)=O	-0.25	·
Cc1cc(C(=O)Oc2ccc(C(=O)c3ccc(F)cc3)cc2)on1	-0.2	·
CS(=O)(=O)c1ccc(C2=Nn3c(nnc3-c3cccs3)SC2)cc1	-1.3	0.71
COc1ccc2nc(NC(=O)/C=C/c3cccs3)sc2c1	0.4	-0.53
O=C(CCSc1ccccc1)NC1CCCCC1	-0.05	·
NS(=O)(=O)c1ccc(CCNc2ccccn2)cc1	-0.3	·
O=C1CSc2ccc(C(=O)NCC3COc4ccccc4O3)cc2N1 (configuration not stated)	-0.75	0.81
CCn1c(SCC(=O)NC(=O)Nc2ccccc2F)nnc1-c1ccccc1	-0.35	·
O=C(CSc1cn(CC(=O)N2CCOCC2)c2ccccc12)NCc1ccco1	-0.35	57
Cc1sc2nc(-c3ccccc3O)[nH]c(=O)c2c1C	-0.55	1.9
CCCSc1nnc(/N=C/N(C)C)s1	-0.85	-2.6
CCn1c(NCc2nc3ccccc3n2C)nc2ccccc21	1.9	0.075
Cc1ccc(Cn2nnc3c(=O)[nH]c(C4CCN(C(=O)CC(C)(C)C)CC4)nc32)cc1	-0.55	-0.57

More compounds follow:
Results follow in this order: AID504770 | Ba CapD inh
- COC(=O)c1cc(OC(=O)/C=C/c2ccc(C)o2)cc(C(=O)OC)c1
    0.25 | ·
- CCCCC(=O)Oc1cc2c(C(=O)OCC)c(C)n(-c3ccccc3)c2c2ccccc12
    · | 0.1
- CC(C)C(=O)NCCSc1c[nH]c2ccccc12
    -0.95&-1.6 | 0.19&-0.66
- CCOC(=O)CC(=O)Nc1nc2ccccc2s1
    1.8 | 0.1
- Cc1cc(/C=N/n2cnnc2)c(C)n1-c1cccc(I)c1
    -0.7 | 1
- CCOc1cc(CCn2cnc3c([nH]c4ccc(C)cc43)c2=O)ccc1OC
    0.75 | 6.2
- Cc1cc2nc3s/c(=C/c4ccc(-c5cc(Cl)c(C)cc5[N+](=O)[O-])o4)c(=O)n3c2cc1C
    · | -1.2
- O=C1C=C(/C=C/c2ccccc2)C[C@H](c2ccccc2)[C@H]1n1nnc([N+](=O)[O-])n1
    · | -0.91
- CCN(C(=O)COc1ccc(Cl)cc1C)c1ccccc1
    0 | -0.11
- O=C(Nc1c(F)cc(F)cc1Br)c1cc(S(=O)(=O)N2CCc3ccccc3C2)ccc1F
    · | 0.45
- Cc1cc(-n2c(C)cc(C(=O)OCc3c(Cl)cccc3Cl)c2C)no1
    -0.15 | ·
- O=C(OCC(=O)N1CCCCC1)c1cc2ccccc2cc1O
    0.05 | ·
- N/C(=N\OC(=O)C1CCCCC1)c1ccccc1
    -0.15 | 0.19
- CNC(=O)C1CCN(S(=O)(=O)c2c(C)noc2/C=C/c2cccc(C)c2)CC1
    -0.65 | 2.2
- COc1cc(NC(=O)c2ccc(CSC3CCCCC3)cc2)cc(OC)c1OC
    -0.6 | -0.37
- N#Cc1cccc2c1-c1ccccc1C2
    -0.45 | 5.4
- Cc1cc(C)n(/N=C2\CCCc3ccccc32)c(=O)c1C#N
    -0.15 | ·
- O=C1CCCC/C1=N\Nc1ccc(N2CCCCC2)cc1
    -1.4 | ·
- O=C(NC1CCCC1)C1CCCN(S(=O)(=O)c2cccc3cccnc23)C1 (configuration not stated)
    0.25 | 0.095
- COc1ccc(-c2nc(C#N)c(NN3CCOCC3)o2)cc1
    0.95 | ·
- CC1=C(C)CC(C(=O)O)C(C(=O)O)C1 (configuration not stated)
    · | -0.11
- CCn1cc(S(=O)(=O)N2CCC3(CC2)OCCO3)cn1
    -0.05 | -0.23
- CCCCCC[C@H]1C(=O)O[C@H](C)C(NC(=O)c2cccc(NC=O)c2O)C(=O)O[C@@H](C)[C@@H]1OC(=O)CC(C)C (some centres not stated)
    · | -0.025
- NC(=O)C1(c2ccccc2)CCCN1C(=O)c1ccc(Br)cc1 (configuration not stated)
    -0.2 | ·
- COc1ccc(-n2c(NN)nc3sc4c(c3c2=O)CCC4)cc1
    0.7 | -0.1
- COc1ccc(S(=O)(=O)n2oc(=O)cc2-c2ccccc2)cc1OC
    · | 0.07
- CC1CN(CC(C)C(=O)NN)CC(C)O1 (configuration not stated)
    1.2 | ·
- CCN1CCN(c2nc3ccccn3c(=O)c2/C=C2\SC(=S)N(CC)C2=O)CC1
    -0.15 | 0.61
- N#Cc1ccccc1NC(=O)COC(=O)Cc1ccc(Br)cc1
    -0.55 | -0.54
- CCNc1nc(N2CCOCC2)nc(N2CCC(Cc3ccccc3)CC2)n1
    -0.05 | 1.1
- Cc1cc(C(=O)OCn2nnc3ccccc3c2=O)c(C)o1
    -0.65 | ·
- CCOC(=O)C1C(c2c(F)cccc2Cl)C(C(=O)OCC)C(O)(C(F)(F)F)NC1(O)C(F)(F)F (configuration not stated)
    · | -0.83
- O=C(NO)c1ncc(C(F)(F)F)cc1Cl
    · | -0.5
- COc1cccc(C2C3=C(CC(C)(C)CC3=O)Nc3ccccc3N2C(C)=O)c1OC (configuration not stated)
    0.25 | 1.1
- Cc1ccc2c(CNC3CCCC3)c(C(=O)O)[nH]c2c1
    -0.8 | 0.73
- Cc1nn(Cc2cccc(C(=O)NN3CCCCC3)c2)c(C)c1Cl
    -0.6 | -0.04
- CC(C)C(=O)Nc1ccc(Cl)cc1C(=O)O
    -0.05 | 2
- COc1ccc(OCCCn2ccnc2)cc1
    -0.2 | 0.47
- O=C(Nc1cc(Cl)ccc1Oc1ccc2ccccc2c1Br)c1cc(I)cc(I)c1O
    · | -0.43
- Cn1c(=O)c2c(nc(NCc3ccc4c(c3)OCO4)n2Cc2cccc(Br)c2)n(C)c1=O
    · | -0.04
- CC(C)CCC1=NN(C(=O)c2ccc([N+](=O)[O-])cc2)C(O)(C(F)(F)F)C1 (configuration not stated)
    · | -0.62
- CC(CC(=O)O)n1ccnc1 (configuration not stated)
    0 | 0.43
- Nc1nc(SCC(=O)N2CCCC2)[nH]c(=O)c1NC(=O)c1cccs1
    -1 | ·
- C=C(C)CNc1nc(-c2ccccc2)c(-c2ccccc2)s1
    -0.45 | 2.8
- O=S1(=O)CC(O)C(Nc2ccc(Cl)cc2)C1 (configuration not stated)
    2 | -0.66
- N#Cc1ccc(CSc2cccc3cccnc23)cc1
    0.6 | 62
- O=C(CSc1ncnc2sccc12)N(Cc1cccs1)c1ccc2c(c1)OCCO2
    -0.2 | ·
- CCOc1ccc(N2CC(O)(c3ccc(F)cc3)[N+]3=C2SCCC3)cc1 (configuration not stated)
    · | -0.2
- CSc1ccc(-c2nc(-c3ccccc3)c(-c3ccc(Sc4ccccc4)cc3)[nH]2)cc1
    · | 65
- O=C(Nc1cccc(C(F)(F)F)c1)c1cc[n+]([O-])cc1
    -0.15 | ·
- CCN(CC)c1ccc(/C=N/O)c(O)c1
    0.35 | -1.2
- O=C1CSC(c2cc3c(cc2Br)OCO3)N1c1cccc(C(F)(F)F)c1 (configuration not stated)
    · | -0.79
- O=C(O)CCCc1nc(-c2cnc3n(c2=O)CCS3)no1
    -0.65 | 0.95
- O=S(=O)(Nc1ccc(Cl)c(C(F)(F)F)c1)c1cnc[nH]1
    -0.3 | 62
- COc1cccc(N2C(=O)/C(=C/c3c(OC)ccc4ccccc34)C(=O)NC2=S)c1
    · | -1.1
- FC(F)Sc1ccc(C2=Nn3c(Cc4ccccc4)nnc3SC2)cc1
    · | -0.23
- O=C(CCC(=O)c1ccccc1)OCc1ccccc1
    -1.1 | 8.7
- O=C(CNC(=O)C1CCCCC1)OCn1nnc2ccccc2c1=O
    -1.4 | ·
- FC(F)=C(F)CCSC1=NCCN1
    -0.05 | -0.35
- CC1CC(C)CN(C(=O)c2sc3ccccc3c2Cl)C1 (configuration not stated)
    -1.1 | 0.19

(listing goes on)
Results follow in this order: AID504770 | Ba CapD inh
- COc1ccc(C2CC(c3cccs3)=NN2C(=O)CSc2nnnn2C2CC2)cc1OC (configuration not stated)
    -0.65 | ·
- CC(=O)NC(C1C(=O)CC(C)(C)CC1=O)(C(F)(F)F)C(F)(F)F
    1.1 | -0.03
- Cc1ccc(NC(=O)c2ccc3ncsc3c2)cc1
    -0.55 | 1.4
- Cc1cnc(C(=O)OCC(=O)Nc2ccc3c(c2)OCCO3)cn1
    -1.1 | ·
- Cc1cccc(OCCn2c(NC(=O)c3ccc([N+](=O)[O-])cc3)nc3ccccc32)c1
    · | -0.32
- c1ccc2nc3c(nc2c1)Nn1cnnc1S3
    -0.25 | 0.26

Entries of single compounds, quoted from the list. Order of values: AID504770, Ba CapD inh
Listed for Cc1cnc(C(=O)OCC(=O)Nc2ccc3c(c2)OCCO3)cn1 = -1.1, ·
Listed for c1ccc2nc3c(nc2c1)Nn1cnnc1S3 = -0.25, 0.26
Listed for COc1ccc(C2CC(c3cccs3)=NN2C(=O)CSc2nnnn2C2CC2)cc1OC (configuration not stated) = -0.65, ·
Listed for Cc1ccc(NC(=O)c2ccc3ncsc3c2)cc1 = -0.55, 1.4
